CSC inhib: blocks cancer stem cells. cancer stem cell-like cells viability, luminescence. AID 2717. 300,000 tested, 1.1% active. inhibition, % at 7.5 µM;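 active = mean at 75% or more and at least half the replicates too; tested in HMLE shEcad cells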;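 note: 0% = median of negative and 100% = median of positive control wells; the first replicate is given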
Rce1 inh: yeast Ras-converting enzyme inhibition; Q03530; yeast membranes, quenched prenylated peptide cleavage fluorescence; calls only; 290,000 tested, 0.27% active; AID 2563;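 active = fall in fluorescence gain of 50% or more versus controls, with final raw signal at or below 3038400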;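 note: plate controls were neutral control wells for no effect and wells lacking membranes for full effect; tested at 10 µM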
Target sequence (Q03530 whole entry, looked up): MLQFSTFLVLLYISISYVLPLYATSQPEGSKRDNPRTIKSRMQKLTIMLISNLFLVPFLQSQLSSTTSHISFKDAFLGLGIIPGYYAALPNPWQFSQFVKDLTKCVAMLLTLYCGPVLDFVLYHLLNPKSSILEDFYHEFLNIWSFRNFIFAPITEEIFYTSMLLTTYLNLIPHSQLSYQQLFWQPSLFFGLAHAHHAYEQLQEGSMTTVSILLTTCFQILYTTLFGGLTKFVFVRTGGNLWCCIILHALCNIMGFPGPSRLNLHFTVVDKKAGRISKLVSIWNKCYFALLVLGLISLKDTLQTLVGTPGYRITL
UUG fidelity: modulators of start codon recognition fidelity in yeast; S. cerevisiae UUG-firefly luciferase reporter, luminescence/redox ratio; activity score, % at 18.7 µM; 350,000 tested, 0.13% active; AID 602363;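 active = replicate mean at a twofold rise or more, about +100% in these data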;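 note: firefly luciferase made from a UUG start codon reports start codon fidelity; reporter light over untreated wells divided by growth signal over untreated wells; some hits fall short of that in this replicate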
HIV Env fusion: inhibitors of HIV Env-mediated cell fusion; HeLa-JRFL Env/CEM21 cell fusion, luciferase; inhibition, % at 12.3 µM; 360,000 tested, 1.1% active;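 active = mean replicate inhibition score of at least 50 and every replicate individually at or above 50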;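 note: 0% = plate neutral controls and 100% = maraviroc near 300 nM; one replicate is shown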
MT1-MMP act inh: inhibitors of human MT1-MMP activation; HT1080 RFP-PRO-GFP cells, GFP/RFP ratio fluorescence, overnight; percent of plate control window, DMSO zero; GFP/RFP ratio change, % at 20 µM; 360,000 tested, 0.061% active; AID 651647;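 active = GFP/RFP ratio change of at least 30% with cell ATP level not reduced by more than half and red fluorescence within 50% of control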; note: strong numbers were not always called active
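Test system: HT1080 cells expressing an RFP-PRO-GFP fluorescent reporter construct / Compound dosing: single-point 20 µM compound, 1% DMSO / Schedule: cells overnight before dosing, compound overnight, 37 °C, 5% CO2 / Evaluation: GFP/RFP fluorescence ratio / Control set: DMSO and RFP-L50D-GFP cell wells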
eIF4H FP inh: inhibitors of RNA binding by human eIF4H; AID 2012; Q15056; eIF4H fluorescence polarization binding assay; 290,000 tested, 0.94% active; inhibition, % at 35 µM;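 active = 50% or more with normal probe brightness, or confirmed in later tests; about a fifth of its hits are not listed in these tables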;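 note: calls also rest on retests at 20 µM and on dose response follow-up; 0% = protein and probe with vehicle and 100% = probe without protein; strong numbers were not always called active; many hits fall short of the cut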
PABP FP inh: PABP-poly(A) binding inhibition | PABP-poly(A) RNA binding, fluorescence polarization | inhibition, % at 35 µM | 290,000 tested, 1% active | AID 2014;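 active = 50% or more with normal probe brightness, or confirmed in later tests; about a fifth of its hits are not listed in these tables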;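 note: calls also rest on retests at 20 µM and on dose response follow-up; controls were probe without protein and protein plus probe with vehicle; some compounds called inactive have numbers as strong as hits; many hits fall short of the cut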
eIF4H FP inh retest: further read-out of eIF4H FP inh, marked with its call; inhibition, %; compound at 20 µM; confirmation average;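 mean of two retest wells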
PABP FP inh retest: recorded beside PABP FP inh, whose call it bears; inhibition, %; compound at 20 µM; confirmation repeats;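 mean of two retest wells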
MT1-MMP act inh RFP: further read-out of MT1-MMP act inh, marked with its call; RFP signal change, %; measured here: RFP expression control read;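 0 = vehicle wells; hits needed this value within 50% of zero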
An asterisk follows results filed as active; i = inactive; · = no result given; + = active, no number. These rows are one share of the data; the hit share may differ from the screen's.

SMILES	CSC inhib	Rce1 inh	UUG fidelity	HIV Env fusion	MT1-MMP act inh	MT1-MMP act inh RFP	eIF4H FP inh	PABP FP inh	others
O=C1c2ccccc2C2(c3ccccc3)NCCCN12 (stereo not drawn)	40	i	·	3	-1	1	5	14
Cc1ccc(S(=O)(=O)N(C)CC(=O)N2CC(C)OC(C)C2)cc1 (stereo not drawn)	-6	i	-1	6	1	3	-1	4
COc1ccc(C(C(=O)NC2CCCCC2)N(C(=O)CCl)c2ccccc2Cl)cc1 (stereo not drawn)	-1	i	·	-3	-27	-24	-5	13
Cc1cc(C(=O)NC2CC(C)(C)Cc3c2cnn3-c2ccc(F)cc2)nn1C (stereo not drawn)	·	i	5	15	4	0	5	6
CCS(=O)(=O)c1c(S(=O)(=O)CC)c2ccccn2c1C(N)=O	-7	i	·	10	1	1	-5	1
CN1CCN(NC(=O)CC(C)(C)C)CC1	2	i	·	8	1	2	-1	3
Cc1ccc(NC(=O)CSc2nnc(C3CC3)n2CC2CCCO2)cc1C (stereo not drawn)	-3	i	-9	6	2	5	-8	4
O=C(Nc1cccnc1)c1noc2c1CCCCC2	5	i	-48	·	3	1	15	10
CC1CCN(S(=O)(=O)N2CCN(C(=O)c3ccc4c(c3)OCO4)CC2)CC1	-15	·	13	2	-1	3	10	0
COc1ccc(CCN2C(=O)C3CC=C(C)CC3C2=O)cc1OC (stereo not drawn)	12	i	-11	·	-3	-5	-6	-6
NC(=O)c1ccc(NC(=O)CC23CC4CC(CC(Br)(C4)C2)C3)cc1	·	i	-2	7	3	6	4	-12
O=c1[nH]c(=S)[nH]c2c1C(c1ccc(F)cc1)OC(CCC(F)(F)F)C2 (stereo not drawn)	·	·	-4	3	0	-3	·	·
Cc1ccc2[nH]c(C)cc(=S)c2c1	·	·	·	12	-2	-2	17	-24
Cc1cccc(C2=N/C(=C/c3cccs3)C(=O)O2)c1	·	i	·	-14	3	4	-10	-4
Cc1csc(SC(C)C(=O)Nc2ccc(F)cc2Cl)n1 (stereo not drawn)	-9	·	-8	-121	0	-1	·	·
CC(SC(C)C(=O)NN=Cc1c[nH]c2ccccc12)C(=O)NN=Cc1c[nH]c2ccccc12 (stereo not drawn)	·	·	-18	9	1	-1	·	·
NC(=O)COC(=O)c1ccccc1OCc1ccccc1Cl	-14	i	·	12	-2	0	-2	-10
CCOC(=O)C1CCCN(CCC(=O)Nc2ccc(C)c(C)c2)C1 (stereo not drawn)	-10	i	-7	17	3	4	-1	-9
Clc1ccc(Cl)c(OCCCCNCc2ccccc2)c1	38	i	·	13	-3	2	16	-10
Cc1ccccc1NC(=S)N(CCCN1CCOCC1)Cc1cccnc1	-7	i	·	18	-6	-2	-10	-7
CC(=O)c1cccc(NC(=S)NC(=O)c2cccc(Cl)c2)c1	0	i	·	-22	2	1	3	-9
O=[N+]([O-])c1ccc(O)c(C2=NNC(c3ccccc3F)C2)c1 (stereo not drawn)	37	i	-14	33	-5	-36	0	6
CCOc1cc(N2CCOCC2)c(OCC)cc1NC(=O)COC(=O)c1cc(C)oc1C	-11	i	-10	·	·	·	-4	-5
O=S(=O)(NCc1ccccc1)NCc1cccc(C(F)(F)F)c1	-8	i	-8	7	6	5	42	4
COc1ccccc1NC(=O)CSc1nnc(Cn2nnc(-c3ccccc3)n2)n1-c1ccccc1	-15	i	-10	-41	4	2	-4	2
Cc1nnc(SCC(=O)Nc2cc(C(F)(F)F)ccc2Cl)n1C	14	i	-3	8	2	2	-1	2
Cc1ccccc1CN1CCC(Oc2ccc(C(=O)N3CCCC3)cc2)CC1	17	i	-9	2	1	4	7	8
CC1=NN(C(=O)c2ccc(Br)cc2)C(O)(C(F)(F)OC(F)(F)F)C1 (stereo not drawn)	38	i	-14	30	5	-4	4	8
COc1ccc(CC(=O)N/N=C(\C)CC(=O)NCc2ccco2)cc1OC	6	·	·	1	6	3	-6	-7
CC(O)(c1ccc(F)c(F)c1)c1nc(-c2cnc3ccccc3c2)cs1 (stereo not drawn)	·	·	-24	10	-1	-12	·	·
COc1ccc(-c2nc(C#N)c(N3CCN(c4cccc(Cl)c4)CC3)o2)cc1OC	-6	i	-15	·	4	4	1	-6
O=C(NCc1cccnc1)c1ccc2sc([C@@H]3O[C@H](CO)[C@H](O)[C@H](O)[C@H]3O)nc2c1	·	·	-23	-33	0	6	·	·
COc1cccc(-c2ccc(NC(=O)C3CCCN(Cc4cnn(C(C)C)c4)C3)cc2)c1 (stereo not drawn)	7	i	6	-5	3	-5	-5	-16
O=C1CC2(CCN(C(=O)C(=O)c3c[nH]c4ccccc34)CC2)Oc2ccccc21	11	i	11	11	-16	-5	-4	3
O=C(N/N=C/C=C\c1ccco1)c1ccccn1	-18	i	·	-12	-2	4	75*	44*	eIF4H FP inh retest=78*;PABP FP inh retest=78*
NS(=O)(=O)c1ccc(NNC(=O)c2ccc(Br)o2)c([N+](=O)[O-])c1	28	·	-9	·	-1	-1	·	·
CCn1c(CN2c3ccccc3Sc3ccccc32)n[nH]c1=S	-3	i	-10	-7	1	-4	4	9
Cn1nc(C(=O)NCc2cccc(F)c2)cc1C(=O)NCc1cccc(F)c1	2	·	-10	·	8	-10	·	·
O=C(N/N=C/c1ccccc1[N+](=O)[O-])C(=O)N1CCCC1	-11	i	·	-18	1	0	10	0
Cc1ccc(NC(=O)CN2C(=O)N/C(=C/c3cccn3-c3ccc(C(=O)O)cc3)C2=O)cc1	-13	·	·	-20	-5	4	88	-8	eIF4H FP inh retest=2;PABP FP inh retest=10
COC(=O)c1sc(N)c(C(=O)OC)c1COC(=O)CCNS(=O)(=O)c1ccc(C)cc1	-2	i	-6	10	2	-4	-5	11
CN(C)CCOc1ncnc2c1oc1ccccc12	-1	i	-4	·	-5	3	3	23
Cc1csc(NC(=O)CSc2nncc(=O)n2N)n1	-9	i	-25	5	3	0	5	7
Cc1nc2c(oc3ccccc32)c(=O)o1	-5	i	-15	-59	-1	-1	-3	-4
NS(=O)(=O)c1ccc(NC(=O)CSc2nc3c(cnn3-c3ccccn3)c(=O)[nH]2)cc1	·	·	-11	10	3	6	·	·
CCN(CC)C(=O)C1CCCN(C/C=C/c2ccccc2[N+](=O)[O-])C1 (stereo not drawn)	-10	i	-14	-5	-2	1	0	9
COc1ccc2cc(CCl)c(Cl)nc2c1	-14	i	·	9	0	4	-5	12
CC(=O)NC(c1ccco1)c1ccc2cccnc2c1O (stereo not drawn)	-1	i	-24	·	9	4	29	15
COc1ccc(NC2CCCN(C(=O)CN3CCOC3=O)C2)cc1 (stereo not drawn)	0	i	-16	·	3	4	-4	-4
CCCCCn1c(=O)[nH]c2cc(C(=O)NCCc3ccc(OC)c(OC)c3)ccc2c1=O	0	i	-11	-11	3	-2	1	-3

A draw from above in order of molecular weight, low to high.
SMILES	CSC inhib	Rce1 inh	UUG fidelity	HIV Env fusion	MT1-MMP act inh	MT1-MMP act inh RFP	eIF4H FP inh	PABP FP inh	others
Cc1ccc2[nH]c(C)cc(=S)c2c1	·	·	·	12	-2	-2	17	-24
Cc1nc2c(oc3ccccc32)c(=O)o1	-5	i	-15	-59	-1	-1	-3	-4
CN1CCN(NC(=O)CC(C)(C)C)CC1	2	i	·	8	1	2	-1	3
O=C(N/N=C/C=C\c1ccco1)c1ccccn1	-18	i	·	-12	-2	4	75*	44*	eIF4H FP inh retest=78*;PABP FP inh retest=78*
CN(C)CCOc1ncnc2c1oc1ccccc12	-1	i	-4	·	-5	3	3	23
Cc1cccc(C2=N/C(=C/c3cccs3)C(=O)O2)c1	·	i	·	-14	3	4	-10	-4
O=C(N/N=C/c1ccccc1[N+](=O)[O-])C(=O)N1CCCC1	-11	i	·	-18	1	0	10	0
Clc1ccc(Cl)c(OCCCCNCc2ccccc2)c1	38	i	·	13	-3	2	16	-10
CCOC(=O)C1CCCN(CCC(=O)Nc2ccc(C)c(C)c2)C1 (stereo not drawn)	-10	i	-7	17	3	4	-1	-9
COc1ccc(NC2CCCN(C(=O)CN3CCOC3=O)C2)cc1 (stereo not drawn)	0	i	-16	·	3	4	-4	-4
COc1ccc(CC(=O)N/N=C(\C)CC(=O)NCc2ccco2)cc1OC	6	·	·	1	6	3	-6	-7
Cn1nc(C(=O)NCc2cccc(F)c2)cc1C(=O)NCc1cccc(F)c1	2	·	-10	·	8	-10	·	·
Cc1ccc(NC(=O)CSc2nnc(C3CC3)n2CC2CCCO2)cc1C (stereo not drawn)	-3	i	-9	6	2	5	-8	4
NC(=O)c1ccc(NC(=O)CC23CC4CC(CC(Br)(C4)C2)C3)cc1	·	i	-2	7	3	6	4	-12
NS(=O)(=O)c1ccc(NNC(=O)c2ccc(Br)o2)c([N+](=O)[O-])c1	28	·	-9	·	-1	-1	·	·
COc1cccc(-c2ccc(NC(=O)C3CCCN(Cc4cnn(C(C)C)c4)C3)cc2)c1 (stereo not drawn)	7	i	6	-5	3	-5	-5	-16
COC(=O)c1sc(N)c(C(=O)OC)c1COC(=O)CCNS(=O)(=O)c1ccc(C)cc1	-2	i	-6	10	2	-4	-5	11

(continued)
SMILES	CSC inhib	Rce1 inh	UUG fidelity	HIV Env fusion	MT1-MMP act inh	MT1-MMP act inh RFP	eIF4H FP inh	PABP FP inh	others
CC1(C)N=C(c2ccc(Cl)cc2Cl)C(=O)N1	-7	i	-4	-32	-5	-1	12	-6
O=C(COC(=O)c1ccccc1Cc1ccccc1)NC1CCS(=O)(=O)C1 (stereo not drawn)	-4	+	-2	-189	-3	-2	9	8
COCCCn1cnc2c(c1=O)c1nc3ccccc3nc1n2-c1ccccc1	-2	i	-19	·	2	-1	-3	-10
Cc1ccc(CNC(=O)C(=O)NCC2OCCN2S(=O)(=O)c2ccc(Cl)cc2)cc1 (stereo not drawn)	12	i	-10	-7	0	-9	2	-4
CCC1CCCCN1CCCNC(=O)CN1C(=O)CSc2ccc(S(=O)(=O)N3CCC(C)CC3)cc21 (stereo not drawn)	2	i	-15	14	-3	4	-10	2
CC1CCc2nc(/C(C#N)=C/c3cccnc3)sc2C1 (stereo not drawn)	40	i	·	-269	-3	-3	1	-11

High-throughput results: PubChem, several laboratories
